# BJeLR viab HTS – compounds reducing viability of BJeLR cells | BJeLR fibroblasts viability, CellTiterGlo ATP luminescence, 48 h; HRASV12, hTERT and SV40 LT/ST transformed | viability loss activity score, % (no concentration beside the values) | 30,000 tested, 0.64% active | AID 2275; in the data active = viability loss activity score above about 50%; about a fifth of its hits are not listed in these tables;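 also: higher score means fewer live cells and less ATP luminescence; stock transfer was 50 or 100 nL into about 30 µL; 0% = vehicle wells and 100% = a reference killing control; one replicate is shown; the record names a cut of 85%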
# A1 inh – A1 inhibition. 21,000 tested, 0.51% active. AID 2241. caspase activation, % (no concentration beside the values). MEF A1-2A-BIM cells, caspase-Glo luminescence, 3 h; percent of clofoctol signal, DMSO as zero;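 active = most replicate scores above 10, or exactly half above 10 with mean activity above 10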;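 also: effector caspase 3 and 7 activity cleaving a DEVD luciferin substrate; 50 nL library stock added to about 30 µL; numbers are from one replicate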
# Numbers without * were called inactive; · = not tested or not shown. A portion of the library (hit frequency here may not be typical).
no.	SMILES	A1 inh	BJeLR viab HTS
1	O=C(O)COCC(=O)Nc1ccc(Oc2cccc(C(F)(F)F)c2)nc1	1.1	-2.3
2	O=c1cc(-c2ccc(O[C@@H]3O[C@H](CO)[C@@H](O)[C@H](O)[C@H]3O)cc2)oc2cc(O)cc(O)c12	0.0	-8.1
3	C[C@@H]1CN([C@H](C)CO)C(=O)c2cc(NC(=O)C3CC3)ccc2O[C@H]1CN(C)C(=O)Nc1ccc(F)cc1	0.7	-0.4
4	O=C(O)CSc1c2c(nc3cc(C(=O)NCc4cccs4)ccc13)CCCC2	·	-8.0
5	CC1CCC2(OC1)OC1CC3C4CC=C5C[C@@H](O)CC(O)[C@]5(C)C4CC[C@]3(C)C1C2C (stereo not given in full)	-0.2	4.4
6	C[C@H]1CN([C@@H](C)CO)C(=O)c2cccc(NC(=O)Nc3ccccc3)c2O[C@@H]1CN(C)S(=O)(=O)c1ccc(F)cc1	·	-1.2
7	C=CCN1C(=O)/C(=C/c2c(Sc3ccccc3)nc3ccccn3c2=O)SC1=S	·	-0.8
8	Cc1nc2c(C(=O)NCCc3ccccc3Cl)c[nH]n2c(=O)c1Cl	-0.1	-0.3
9	Cc1c(Br)c(C(F)(F)F)nn1CC(=O)N1CCOCC1	-1.1	4.0
10	COc1ccc(OC)c(NC(=O)c2cccnc2)c1	0.1	-2.5
11	C[C@@H]1CN([C@H](C)CO)C(=O)c2cccc(NS(C)(=O)=O)c2O[C@@H]1CN(C)Cc1ccc2c(c1)OCO2	·	-7.8
12	C[C@H]1CN([C@@H](C)CO)C(=O)c2cccc(NC(=O)c3cnccn3)c2O[C@H]1CN(C)C(=O)Nc1ccc(F)cc1	·	2.3

# Individual results from the results shown.
# In BJeLR viab HTS, compound 11 has -7.8
# In BJeLR viab HTS, compound 1 has -2.3

# Back to the main list, repeating the two entries before the break.
no.	SMILES	A1 inh	BJeLR viab HTS
11	C[C@@H]1CN([C@H](C)CO)C(=O)c2cccc(NS(C)(=O)=O)c2O[C@@H]1CN(C)Cc1ccc2c(c1)OCO2	·	-7.8
12	C[C@H]1CN([C@@H](C)CO)C(=O)c2cccc(NC(=O)c3cnccn3)c2O[C@H]1CN(C)C(=O)Nc1ccc(F)cc1	·	2.3
13	CC(=O)N1CCc2cc3nc(C)cc(C)c3cc21	·	1.5
14	CC(C(=O)NCc1ccc(Cl)cc1)n1cccc1C(=O)c1ccccc1 (stereo not given)	0.6	-2.5
15	CCCCCCCCCC(O)CC(O)CC(O)CC1CC=CC(=O)O1 (stereo not given)	0.2	4.5
16	C[C@H](CO)N1C[C@H](C)[C@@H](CN(C)Cc2ccc(C(=O)O)cc2)Oc2c(NC(=O)C3CCOCC3)cccc2C1=O	·	1.0
17	C[C@@H]1CN([C@H](C)CO)C(=O)c2cc(NC(=O)Cn3cnnn3)ccc2O[C@@H]1CN(C)C(=O)Nc1cccc2ccccc12	-0.2	-4.6
18	C[C@H]1CN([C@@H](C)CO)C(=O)c2cccc(NS(C)(=O)=O)c2O[C@@H]1CN(C)Cc1ccc(Oc2ccccc2)cc1	·	2.2
19	C[C@@H]1CN([C@H](C)CO)C(=O)c2cc(NC(=O)Nc3ccc(F)cc3)ccc2O[C@@H]1CN(C)Cc1ccc(Oc2ccccc2)cc1	0.7	-4.8
20	COc1ccc(NC(=O)Nc2cccc3c2O[C@H](CN(C)Cc2ccc(C(F)(F)F)cc2)[C@H](C)CN([C@H](C)CO)C3=O)cc1	·	15
21	C[C@H]1CN([C@@H](C)CO)C(=O)c2cc(NS(=O)(=O)c3ccc(Cl)cc3)ccc2O[C@H]1CN(C)S(C)(=O)=O	-0.4	-1.5
22	Cc1ccc(N(CC(=O)NCc2ccco2)S(=O)(=O)c2ccc(C)cc2)cc1	0.2	-3.5
23	Nc1nc(-c2ccccc2)cc(=S)s1	·	-3.5
24	CCN(CC)CCC1S(=O)(=O)CC(c2ccccc2)CS1(=O)=O (stereo not given)	-1.3	-0.3
25	C[C@@H]1CN([C@@H](C)CO)C(=O)c2cccc(NC(=O)c3cnccn3)c2O[C@@H]1CN(C)Cc1ccc(Cl)c(Cl)c1	·	-2.2
26	c1ccc2c(c1)oc1c(N3CCCCC3)ncnc12	-1.1	2.3
27	O=C1c2ccccc2C(=O)N1CC12CC3CC(CC(C3)C1)C2	-0.2	1.7
28	CCCCn1c(CCNC(=O)c2ccco2)nc2ccccc21	0.1	-1.7
29	COc1ccc(OC(=O)c2csc(Cc3c(Cl)cccc3Cl)n2)cc1	1.9	4.3
30	C[C@@H]1CN([C@H](C)CO)C(=O)c2cc(NS(=O)(=O)c3cccs3)ccc2O[C@@H]1CN(C)Cc1ccc(-c2ccccc2)cc1	4.1	1.8
31	C[C@H]1CN([C@@H](C)CO)C(=O)c2cc(NC(=O)NC3CCCCC3)ccc2O[C@H]1CN(C)Cc1ccc2c(c1)OCO2	-1.0	2.0
32	CC(C)(C)c1csc(-c2ccc(OC(F)(F)F)cc2)n1	-0.3	2.2
33	CN(c1ccccc1)C(C(=O)NC1CCCC1)c1ccc(Cl)cc1 (stereo not given)	·	11
34	Cc1noc(C)c1NC(=O)Nc1cccc2c1O[C@@H](CN(C)Cc1ccc3c(c1)OCO3)[C@@H](C)CN([C@H](C)CO)C2=O	·	3.3
35	COc1ccc(S(=O)(=O)N(C)C[C@@H]2Oc3ccc(NS(=O)(=O)c4ccc(C)cc4)cc3C(=O)N([C@H](C)CO)C[C@H]2C)cc1	-1.2	-0.8
36	CCc1ccc(C(=O)c2cnc3cc4c(cc3c2N2CCCC2)OCO4)cc1	-0.8	10
37	O=C(C1CCC(CNS(=O)(=O)c2ccccc2)CC1)N1CCCCC1 (stereo not given)	1.6	-4.9
38	C[C@H]1CN([C@@H](C)CO)C(=O)c2cccc(NC(=O)Nc3ccc(C(F)(F)F)cc3)c2O[C@@H]1CN(C)S(=O)(=O)c1ccccc1	·	-2.8
39	C[C@@H]1CN([C@@H](C)CO)C(=O)c2cccc(NC(=O)c3ccc(-c4nccs4)cc3)c2O[C@@H]1CN(C)Cc1ccc(Oc2ccccc2)cc1	·	-1.0
40	CNC[C@H]1Oc2c(NC(=O)c3cnccn3)cccc2C(=O)N([C@@H](C)CO)C[C@@H]1C	·	-1.7
41	COC(CNC(=O)c1coc2nc3ccccc3nc12)OC	-5.5	-2.0
42	COc1ccc(/C=C2\C(=O)C3(C)CCC2C3(C)C)cc1 (stereo not given)	0.6	-3.2
43	CC(C)(C)S(=O)(=O)/C(C#N)=C/Nc1ccccn1	-0.3	-0.2
44	Cc1nn(Cc2ccc(F)cc2)c(C)c1NC(=O)c1cc(-c2ccc3c(c2)OCO3)on1	·	-10
45	Cc1ccc(S(=O)(=O)NC2=NCN(C3CCN(Cc4ccccc4)CC3)CN2)cc1	0.8	1.1
46	C[C@H](CO)N1C[C@H](C)[C@H](CN(C)S(=O)(=O)c2ccc(Cl)cc2)Oc2ccc(NC(=O)CCCCCC(=O)Nc3ccccc3N)cc2C1=O	·	8.1
47	CNC[C@@H]1Oc2c(NC(=O)c3ccncc3)cccc2C(=O)N([C@H](C)CO)C[C@@H]1C	·	3.8
48	COc1cccc(NC(=S)/N=C(\N)Nc2nc(C)c3ccccc3n2)c1	·	5.0
49	C[C@@H]1CN([C@@H](C)CO)C(=O)c2cccc(NS(=O)(=O)c3ccc(Cl)cc3)c2O[C@@H]1CN(C)S(=O)(=O)c1ccc(F)cc1	·	0.2
50	CC1C(=O)C23CC(O)C4C(C)(C(=O)OC5OC(CO)C(O)C(O)C5O)CCCC4(C)C2(O)CCC1C3 (stereo not given)	0.0	5.4
51	CC(C)(C)c1ccc(NC(=O)/C=C/c2ccc(-c3cccs3)s2)cc1	0.0	10
52	CCCC[C@@H](O)c1cc(OC)cc(=O)o1	-0.1	2.7
53	CCSC1=N/C(=C\c2cc3c(cc2Br)OCO3)C(=O)S1	·	1.8
54	COC(=O)c1ccc(Sc2ccc(Cl)cc2)c(N)c1	-0.8	5.8
55	C[C@@H]1CN([C@@H](C)CO)C(=O)c2cccc(NC(=O)c3ccc(-c4nccs4)cc3)c2O[C@@H]1CN(C)Cc1ccncc1	·	-7.2
56	CC1CC(NC(=S)NCc2csc3ccccc23)CC(C)(C)C1 (stereo not given)	-0.1	-3.9
57	C[C@H]1CN([C@@H](C)CO)C(=O)c2cc(NC(=O)Nc3ccc(F)cc3)ccc2O[C@@H]1CN(C)S(=O)(=O)c1ccc(Cl)cc1	0.1	-4.7
58	Cc1noc(C)c1NC(=O)Nc1ccc2c(c1)C(=O)N([C@H](C)CO)C[C@@H](C)[C@@H](CN(C)S(=O)(=O)c1ccc(F)cc1)O2	-0.5	-0.9
59	COc1ccc(S(=O)(=O)Nc2ccc3c(c2)C(=O)N([C@H](C)CO)C[C@@H](C)[C@H](CN(C)Cc2ccc(-c4ccccc4)cc2)O3)cc1	-0.1	-8.3
60	Cc1ccc(Cc2nnc(C(=O)NCc3ccccc3)o2)cc1	·	0.3

# The last three compounds of the part before open the next one.
no.	SMILES	A1 inh	BJeLR viab HTS
58	Cc1noc(C)c1NC(=O)Nc1ccc2c(c1)C(=O)N([C@H](C)CO)C[C@@H](C)[C@@H](CN(C)S(=O)(=O)c1ccc(F)cc1)O2	-0.5	-0.9
59	COc1ccc(S(=O)(=O)Nc2ccc3c(c2)C(=O)N([C@H](C)CO)C[C@@H](C)[C@H](CN(C)Cc2ccc(-c4ccccc4)cc2)O3)cc1	-0.1	-8.3
60	Cc1ccc(Cc2nnc(C(=O)NCc3ccccc3)o2)cc1	·	0.3
61	c1ccc(-c2nnc3n2C2(CCCC2)Cc2ccccc2-3)cc1	1.5	-3.1
62	CCCCn1c2ccccc2c2nnc(SCC(=O)N=C3NC(=O)CS3)nc21	·	1.2
63	C[C@H]1CN([C@@H](C)CO)C(=O)c2cc(N(C)C)ccc2O[C@@H]1CN(C)Cc1ccc2c(c1)OCO2	-0.7	-0.6
64	C=CCSc1ncnc2c1sc1nc(CC)c3c(c12)CCCC3	-0.3	-1.5
65	CC1CCC(C(=O)NC(Cc2c[nH]c3ccccc23)C(=O)NCc2cccnc2)CC1 (stereo not given)	·	-2.2
66	C[C@@H]1CN([C@H](C)CO)C(=O)c2cccc(N(C)C)c2O[C@H]1CN(C)C(=O)Nc1ccc(F)cc1	·	-4.2
67	C=CCN(CC=C)S(=O)(=O)c1ccc(C(=O)Nc2ccccc2-c2nc3ccccc3[nH]2)cc1	-1.1	-1.1
68	C[C@H]1CN([C@@H](C)CO)C(=O)c2cccc(NC(=O)Nc3cccc4ccccc34)c2O[C@H]1CN(C)C(=O)Nc1ccccc1	·	-0.9
69	COc1ccc(NC(=S)N2CCCC(c3ccccc3)=N2)cc1	·	-2.2
70	Cc1ccc(S(=O)(=O)N(C)C[C@H]2Oc3ccc(NC(=O)Nc4ccc5c(c4)OCO5)cc3C(=O)N([C@@H](C)CO)C[C@H]2C)cc1	-0.1	0.4
71	C[C@@H]1CN([C@@H](C)CO)C(=O)c2cccc(NC(=O)C3CC3)c2O[C@H]1CN(C)S(=O)(=O)c1cccs1	·	1.8
72	Cc1nnc(Sc2cc(C(=O)NCCc3ccccc3)c3ccccc3n2)s1	0.6	-1.9

# Along the list, as entered above:
# Compounds 65 to 71 in BJeLR viab HTS: -2.2, -4.2, -1.1, -0.9, -2.2, 0.4, 1.8

# (cont.)
no.	SMILES	A1 inh	BJeLR viab HTS
73	C=C[C@]1(C)C=C2CCC3C(C)(CCC[C@@]3(C)C(=O)O)C2CC1 (stereo not given in full)	0.2	-1.4
74	CC(C)(C)c1ccc(-c2[nH]nc(NS(=O)(=O)c3ccccc3)c2Br)cc1	-0.6	1.0
75	C[C@@H]1CN([C@@H](C)CO)C(=O)c2cc(NC(=O)CCC(F)(F)F)ccc2O[C@@H]1CN(C)Cc1ccc(C(=O)Nc2ccccc2N)cc1	·	2.0
76	CC(C)NC(=O)N(C)C[C@H]1Oc2c(NC(=O)Nc3ccc(C(F)(F)F)cc3)cccc2C(=O)N([C@H](C)CO)C[C@H]1C	·	-3.0
77	Cc1cc(C(=O)Nc2cccc3c2O[C@@H](CN(C)Cc2ccc(Cl)c(Cl)c2)[C@H](C)CN([C@@H](C)CO)C3=O)n(C)n1	·	-6.6
78	COc1ccc(S(=O)(=O)Nc2cccc3c2O[C@@H](CN(C)C(=O)Nc2ccc4c(c2)OCO4)[C@@H](C)CN([C@H](C)CO)C3=O)cc1	·	-1.4
79	Cc1cc(C)nc(NC(=O)CSC(=S)N2CCOCC2)n1	0.4	-0.4
80	C/C=C(/C)C(=O)OC1Cc2c(ccc3ccc(=O)oc23)OC1(C)C (stereo not given)	-0.4	-12
81	COc1ccc(S(=O)(=O)Nc2cccc3c2O[C@H](CN(C)S(=O)(=O)c2ccc(OC)cc2)[C@H](C)CN([C@@H](C)CO)C3=O)cc1	·	0.2
82	CC(C)NC(=O)N(C)C[C@H]1Oc2c(NC(=O)C3CCCCC3)cccc2C(=O)N([C@@H](C)CO)C[C@H]1C	·	5.5
83	CN1CCN(C2=Nc3ccccc3Sc3ccc(Cl)cc32)CC1	0.3	0.5
84	C[C@H]1CN([C@@H](C)CO)C(=O)c2cc(NC(=O)CCN3CCOCC3)ccc2O[C@@H]1CN(C)Cc1ccc2c(c1)OCO2	0.5	-0.7
85	CC(C)CCNS(=O)(=O)Cc1ccccc1	0.7	-2.5
86	CC(C)Cn1c(=S)[nH]c2ccccc21	·	-2.9
87	O=S(=O)(Cc1nc(CSc2ccccn2)cs1)c1ccc(Cl)cc1	-0.4	6.2
88	CCOc1ccc(CNC(=O)c2cc(=O)[nH]c3ccccc23)cc1	0.2	0.8
89	CSc1ccccc1Sc1cc(C(=O)NCc2ccco2)c2ccccc2n1	1.1	1.8
90	CC(C)NC(=O)Nc1cccc2c1O[C@H](CN(C)Cc1ccc(Oc3ccccc3)cc1)[C@@H](C)CN([C@H](C)CO)C2=O	·	-1.3
91	c1ccc(CCSc2nnc3sc4ccccc4n23)cc1	-4.5	-0.2
92	COc1cccc(C(=O)c2sc3nsc(SCc4ccccc4)c3c2N)c1	-1.2	-3.0

# Bioassay records as filed in PubChem BioAssay.
